Kir21 block – Kir2.1 (mouse) channel inhibition; P35561; HEK293-Kir2.1, FluxOR thallium flux fluorescence; active compounds read low; B-score at 10 µM; hit rate 0.85% among 310,000; AID 1672;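 active = fluorescence ratio B-score at or below minus 3 SD of library scores, with starting-brightness B-score within 2 SD, cut at about -4.2 in these data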;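 note: channel flux triggered by added potassium and thallium sulfate stimulus; B-score of peak minus minimum fluorescence over baseline after thallium stimulus; more negative B-score means stronger Kir2.1 block with less thallium influx; some compounds called inactive have numbers as strong as hits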
Target sequence (P35561 whole entry, looked up): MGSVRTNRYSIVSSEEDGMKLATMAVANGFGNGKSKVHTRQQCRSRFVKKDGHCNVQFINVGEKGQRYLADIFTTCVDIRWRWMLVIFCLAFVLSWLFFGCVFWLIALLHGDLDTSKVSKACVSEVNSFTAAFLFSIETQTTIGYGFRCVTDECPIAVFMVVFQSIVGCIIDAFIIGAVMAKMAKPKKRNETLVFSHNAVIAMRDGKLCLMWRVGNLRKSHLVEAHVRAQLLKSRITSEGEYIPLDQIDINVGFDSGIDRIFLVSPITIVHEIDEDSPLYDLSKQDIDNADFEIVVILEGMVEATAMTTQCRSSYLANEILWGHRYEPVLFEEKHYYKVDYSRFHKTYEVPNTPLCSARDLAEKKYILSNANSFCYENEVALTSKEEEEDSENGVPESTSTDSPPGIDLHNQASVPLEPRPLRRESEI
* hit, by the source's call.

Kir21 block,compound
2,CSCCC(NS(=O)(=O)c1cc(C(=O)O)ccc1Cl)C(=O)O (stereo not given)
0.19,CCOCCCn1c(SCC(=O)NC(C)(C)C)nc2ccccc2c1=O
-0.22,COC(=O)[C@H](NC(=O)c1cc(-c2ccccc2)nc2ccccc12)c1ccccc1
1.1,Cc1cccc(N=CC=C2OC(C)(C)C(C)(C)O2)c1
0.79,CC(Sc1ccccn1)C(=O)Nc1ccc(S(N)(=O)=O)cc1 (stereo not given)
0.99,CCn1cc(CNc2nc3nonc3nc2N2CCCCC2)cn1
0.01,COc1ccc(CCC(=O)NCc2ccccc2Cl)cc1OC
0.27,COc1cccc(NC(=O)CN2C(=O)NC(C)(c3ccc(C)cc3)C2=O)c1 (stereo not given)

Later entries
Kir21 block,compound
-0.02,CC(C)[C@H](N)C(=O)OCCOCn1cnc2c(=O)[nH]c(N)nc21
1.3,CS(=O)(=O)c1ccc(-c2nnn(CC(=O)N3CCCCC3)n2)cc1
-0.51,COc1ccc(NS(=O)(=O)c2cc3c(cc2C)N(C(C)=O)CCO3)cc1
0.29,CCCn1nc(C(=O)NNC(=O)c2cc(S(=O)(=O)NC)ccc2Br)c2ccccc2c1=O
-0.66,COc1ccc(C(=O)N2CCCC(CNC(=O)c3ccc(F)cc3)C2)cc1OC (stereo not given)
-0.65,Cc1cc(C(=O)N2CCN(c3ccc(F)cc3)CC2)on1
-1.1,CC(C)COC(=S)Nc1ccccc1
0.36,O=C(CN1C(=O)NC2(CCCC2)C1=O)Nc1ccccc1-c1ccccc1

Additional results.
Kir21 block,compound
0.22,C/C=C/C=C\C(=O)Nc1cccc(C2=NOC3(C2)C[C@@H](C(N)=O)N(C(=O)/C(C)=C/C)C3)c1 (stereo not given in full)
0.45,Cc1cc(C)cc(C(=O)Nc2cccnc2)c1
1,O=C(c1ccc(Sc2ccccc2)c([N+](=O)[O-])c1)N1CCOCC1
0.99,O=C(Cc1ccccc1)NNC(=O)c1ccc(NC(=O)c2ccccc2)cc1
-3.6,COc1cc(Br)c(CCNC(=O)c2ccco2)cc1OC
0.04,O=C(c1nn(-c2ccccc2)c(=O)c2ccccc12)N1CCN(c2ncccn2)CC1
1.2,Cc1cc(Br)ccc1NC(=O)CCSc1ccccc1
1.7,CC1Sc2ccc(S(=O)(=O)CCC(=O)NC3CCCCCC3)cc2NC1=O (stereo not given)

Later entries.
Kir21 block,compound
1.8,CC(=O)Nc1ccc2c(c1)C(=O)N(c1cccc(C)c1)C2=O
-0.07,O=C1/C(=C/c2cccnc2)Oc2cc(OS(=O)(=O)c3ccc(Cl)cc3)ccc21
0.13,CCCOc1ccc(C2(C(=O)O)CCCC2)cc1
-0.03,CCN1C(=NCCCCO)N[C@@H](c2cccc(C(F)(F)F)c2)C(C(=O)OC)=C1C
-2.2,CCOCCCNC(=O)C1CCN(S(=O)(=O)N2CC(C)CC(C)C2)CC1 (stereo not given)
-0.13,C[C@@H](CO)NC(=O)c1ccc2c3n(nc2c1)-c1ccccc1CO3
-0.33,CCc1n[nH]c(=O)n1Cn1c(CC)n[nH]c1=O
-0.11,Cc1ccc(-c2nn(CCC(=O)O)cc2/C=C\C(=O)c2ccc(Br)cc2)cc1

New compounds follow:
Kir21 block,compound
-0.21,O=C(NC1CCCC1)C(c1ccccn1)N(C(=O)c1csnn1)C1CCCC1 (stereo not given)
0.49,COc1cc(S(=O)(=O)N2CCCCC2)ccc1NC(=O)c1ccncc1
2.2,O=C(NCc1cccnc1)c1cccc(-c2cc3ccccc3oc2=O)c1
-1.6,O=C(CCc1ccccc1)Nc1ccc(NC(=O)c2ccco2)nc1
-0.56,CC(=O)N1CCC2(CC1)C(C#N)=C(N)Oc1c2sc2nc(C)cc(C)c12
-0.79,CCC1(CC)NC(=O)N(CC(=O)OCC(=O)Nc2sccc2C#N)C1=O
1.4,C=CCSc1nc2nc(C)cc(C)n2n1
-0.19,CN(C)c1ccc(C=NCCC2(c3ccccc3)CCOC(C)(C)C2)cc1 (stereo not given)

Later entries
Kir21 block,compound
-0.5,COC(=O)COc1ccc(S(=O)(=O)Nc2ccc(C(N)=O)cc2)cc1Cl
-0.26,COC(=O)c1cc2c(ccn2-c2ccc(F)cc2)n1Cc1ccc(OC(C)=O)cc1
0.56,CC1(C)CC(Nc2ccc(C(F)(F)F)cc2[N+](=O)[O-])CC(C)(C)N1
-0.82,COC(=O)CSc1nnc(CSc2nc(C)cc(C)n2)n1Cc1ccco1
0,CCOc1ccc(S(=O)(=O)N2CCC(C(=O)NC3CC3)CC2)cc1Cl
2.1,Cc1ccc(-c2cccc(C3CC=CC4C3C(=O)N(Cc3ccccc3)C4c3ccc(C(F)(F)F)cc3)c2)cc1 (stereo not given)
0.34,COc1ccc(Cc2nnc(N)s2)cc1OC
-1.8,O=c1cc(N2CCc3ccccc3C2)[nH]c(=O)n1C1CCCCC1

(more compounds)
Kir21 block,compound
0.32,CC[N+](CC)(CC=C(C)C)CC(=O)OC
0.33,CCOC(=O)Cc1csc(NC(=O)CSc2nc(-c3ccccc3)c(C#N)c(=O)[nH]2)n1
-0.51,Cc1ccc2c(c1)C(=O)CC1(CCCCCC1)O2
1.2,O=C1OCC2=C1C(c1ccc(F)cc1)CC(=O)N2c1ccccc1 (stereo not given)
-1.2,O=C(NCCc1ccccc1)c1nc2ncccn2n1
-1.6,O=C(NCCCn1ccnc1)/C(=C\c1cccs1)NC(=O)c1ccccc1
0.99,CCN1C(=O)C(CC(=O)Nc2ccc(OC)cc2)N(CCCN2CCN(c3ccc(OC)cc3)CC2)C1=S (stereo not given)
-0.16,CC(=O)c1ccc(NC(=O)Cn2cnc(S(=O)(=O)N3CCCCC3)c2)cc1

The listing continues.
Kir21 block,compound
0.36,Cc1nnsc1C(=O)NCc1c(F)cccc1Cl
-1.3,OCC#CCSc1nnc(-c2ccncc2)o1
-1.6,CCCc1cc(=O)oc2c3c(c(Cl)cc12)OCN(CCCO)C3
-1.6,Cc1ccccc1C(=O)Nc1cccc(C#N)c1
0.45,CCOc1ncccc1C(=O)OCCN1C(=O)c2ccccc2C1=O
-0.27,Cc1cccc(C)c1NC(=O)N1C2CCCC1CC(NC(=O)C(C)(C)C)C2 (stereo not given)
-0.13,Cc1cccc(C2CC(c3ccc(F)cc3)Nc3nc(N)nn32)c1 (stereo not given)
0.02,CC(C)CC(=O)Nc1ccc(N2CCOCC2)cc1

(further entries)
Kir21 block,compound
1.7,CCn1cc(C(=O)NCC(OC)OC)c(=O)c2cc(S(=O)(=O)N3CCOCC3)ccc21
1.6,COc1ccc(OCC(=O)O/N=C(\N)c2ccc(OC)cc2)cc1
-0.99,CC(C)c1ccc(OCC(=O)N(Cc2ccco2)C2CCS(=O)(=O)C2)cc1 (stereo not given)
0.36,CCc1ccccc1NC(=O)CSc1nnc(-c2ccco2)n1N
-1.8,O=S(=O)(c1cc(F)cc(F)c1)N1CCN(c2ncccn2)CC1
0.32,COc1ccc(-c2[nH]c(-c3ccccc3)nc2SCC(=O)NCc2ccco2)cc1OC
-0.2,CC(C)(C)C(=O)Nc1ccc2c(c1)OCCOCCOc1cc(NC(=O)C(C)(C)C)ccc1OCCOCCO2
-1.3,Cc1cccc(C)c1Nc1nnc(SCC(=O)Nc2sccc2C#N)s1

The list continues:
Kir21 block,compound
2.5,CCC(C)[C@H](NC(=O)[C@@H]1CSC2c3ccccc3C(=O)N21)C(=O)NCC1CCCO1 (stereo not given in full)
2.2,Cn1ncc(C#N)c1NC(=O)c1cc(-c2ccccc2Cl)on1
0.06,CCc1nnc(NS(=O)(=O)c2ccc(N3C(=O)C4CC=C(Cl)CC4C3=O)cc2)s1 (stereo not given)
0.52,NS(=O)(=O)c1cc(C(=O)OCC(=O)NNC(=O)c2ccccc2)ccc1Cl
1.6,Cc1nn(-c2ccccc2)c2sc(C(=O)NNC(=O)COc3cccc4ccccc34)cc12
-0.26,CCCc1ccc(OCCNC(=O)C2CCCCC2)cc1
-0.26,CCN1C(=O)S/C(=C/c2ccc(Sc3nc4ccccc4[nH]3)o2)C1=O
1,COC(=O)CN(C#N)c1nc(SC)nc(N(C)C)n1

Next entries follow:
Kir21 block,compound
0.39,O=C(CSc1nnc(C23CC4CC(CC(C4)C2)C3)o1)Nc1ccc(N2CCOCC2)c(Cl)c1
-0.07,Cc1ccc(-n2c(SCC(N)=O)nnc2-c2ccccn2)cc1C
-0.87,Cc1ccc(S(=O)(=O)NC(=NC2CCCCC2)c2ccccc2)cc1
-0.11,COC(=O)c1ccc(NC(=O)c2ccc3c(c2)OCO3)cc1
-0.61,O=C1/C(=C/c2ccc(F)cc2)SC(=S)N1CC(=O)N1CCCCC1c1cccnc1 (stereo not given)
-1.4,O=C1COc2ccc(C(=O)NC3CC3)cc2N1
-0.37,Cc1ccc(C(=O)CC2(O)C(=O)Nc3ccccc32)s1 (stereo not given)
0.53,Cc1c(NC(=O)c2ccccc2)c(=O)n(-c2ccccc2)n1C

Later entries
Kir21 block,compound
-0.44,CCOC(=O)c1c(N)sc(C(O)(C(F)(F)F)C(F)(F)F)c1-c1ccc(Cl)cc1
0.27,COc1ccc2[nH]c(=O)c(CN(C(=O)c3cccnc3)c3ccccc3OC)cc2c1
0.14,CC1CN(Cc2c(O)ccc3c(=O)c(-c4ccccc4)coc23)CC(C)O1 (stereo not given)
0.28,Cc1ccc(-c2nnn(CC(=O)N(CC3CCCO3)C(C(=O)NCC3CCCO3)c3ccc(F)cc3)n2)o1 (stereo not given)
2.5,COc1ccc(N2Cc3cccc(C(=O)O)c3C2=O)cc1
-0.97,Cc1cc(-c2cn3ccccc3n2)c(C)n1-c1ccccc1
-0.77,COc1ccc(C2=Nc3ccccc3OC2)cc1
1.3,COc1cc2c(cc1OC)CN(CC(=O)Nc1ccc(Cl)c(S(=O)(=O)N(C)C)c1)CC2

The listing continues.
Kir21 block,compound
-1.5,CCOC(=O)c1ccc(NC(=O)c2nc[nH]c2C(=O)NC2CCN(C(=O)OC(C)(C)C)CC2)cc1
-0.95,CCN1C(=O)[C@H]2[C@@H](c3ccc(-c4ccc5c(c4)OCO5)c(OC)c3)N[C@@](Cc3ccccc3)(C(=O)OC)[C@H]2C1=O
0.17,COc1ccc(N2C(=O)CC3(CCCC3)CC2=O)cc1
-0.16,O=C(c1cc2ncc(Br)cn2n1)N1CCOCC1
-0.2,CN(c1ccccc1C(=O)O)S(=O)(=O)c1ccc2[nH]c(=O)[nH]c2c1
-1.4,COc1ccc2c(c1)c(=O)c(C(=O)c1ccc(Cl)cc1)cn2CC(=O)Nc1ccc(F)cc1
0.85,CC(C)C1CC(=O)NC(SCC(=O)Nc2ccc(Br)cc2)=C1C#N (stereo not given)
-0.55,CCN(C(=O)c1cc2c(=O)[nH]c3ccc(C)cc3c2s1)c1ccc(F)cc1

The list goes on:
Kir21 block,compound
0.55,Cc1cc(C)nc(-n2nc(C)cc2NC(=O)COC(=O)CCC(=O)c2cccs2)n1
-0.27,CCC1CCC(N2CCN(c3ccc(F)cc3)CC2)CC1 (stereo not given)
0.09,COc1ccccc1NC(=S)NC1CCCC1
0.08,O=C(NCCS(=O)(=O)N1CCN(c2ccccc2F)CC1)c1cccc(Br)c1
-1.6,CN(C)c1ccc(/C=N/N(CCO)C2=NS(=O)(=O)c3ccccc32)cc1
0.43,Cc1ccc(CCN2CC(C(=O)NCCCN3CCOCC3)CC2=O)cc1 (stereo not given)
1,C=CCN1C(=O)/C(=C2/Sc3ccccc3N2C)SC1=Nc1ccccc1C
1.2,CC1(C)CC(=O)C=C(NNC(=O)OC(C)(C)C)C1

The list continues:
Kir21 block,compound
1.3,O=C(N/C(=C/c1ccco1)C(=O)N1CCOCC1)c1cccs1
0.34,CCC1CCCCN1C(=S)Nc1cccc(S(=O)(=O)N(C)C)c1 (stereo not given)
-1.6,Cc1ccc(N2CC(C(=O)N3CCC4(CC3)CC(=O)c3ccccc3O4)CC2=O)cc1 (stereo not given)
-1.2,COc1ccccc1NC(=S)NCCc1ccc(OC)c(OC)c1
0.03,COc1cc(/C=N/NC(=O)COc2ccc(Cl)cc2)ccc1OS(=O)(=O)c1ccc(C)cc1
0,O=C(CN1CCSCC1)N/N=C/c1cccc(Cl)c1
-12,Cc1cc2nc3s/c(=C/c4ccc(-c5ccccc5C(=O)O)o4)c(=O)n3c2cc1C
0.1,CCOC(=O)C(NC(=O)c1ccccc1OCC)(Nc1ncccn1)C(F)(F)F (stereo not given)

(listing goes on)
Kir21 block,compound
-0.75,Cc1ccc(C(=O)c2ccc([N+](=O)[O-])cc2)c(C)c1
0.91,COC(=O)Nc1ccc(NC(C)=O)cc1
0.68,O=C(CSc1cn(CC(=O)N2CCCC2)c2ccccc12)NCC1CCCO1 (stereo not given)
-1.8,COC(/C=C/Nc1ccc(C)c(C)c1)=C(C#N)C#N
-0.12,CCc1ccc(-c2cc(C)no2)cc1S(=O)(=O)Nc1cccc(CN2CCCC2)c1

Only part of the results is shown, and most or all hits are left out here.
